Source: PubChem BioAssay (several laboratories)
Autofluor counter: counter-screen for toxin protease inhibitors: compound fluorescence. compound autofluorescence counterscreen, microsphere flow cytometry; active compounds read high. 3.1% of 360,000 active. fluorescence intensity (concentration not given with the values);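 active means at least 3 SD above the mean of all compounds, about 16000 in these data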;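 further: 100 nL of 1 mM stock went into each well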
PrP 5UTR inh: inhibition of PrP 5' UTR reporter expression | inhibition, % (concentration not given with the values) | 0.35% of 340,000 active | cell-based PrP 5' UTR mRNA reporter, plate reader | AID 488862, 2010;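 active means every replicate at 50% or more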;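 further: 0 = median of the neutral control wells; tested in H4 reporter cells; numbers are from one replicate; inactives centre near -14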
Mtb hypoxia inh: PubChem AID 1159583 | 0.1% of 300,000 active | fluorescence inhibition, % (test concentration not listed) | M. tuberculosis hypoxia-regulated fluorescent reporter, fluorescence;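 active means 35 to 45% if threefold the growth effect, above 45% if 1.5-fold the growth effect; inactive means the rest, general growth blockers included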;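 further: wells of about 50 µL received 100 nL stock; 0% = vehicle wells and 100% = reference inhibitor wells; whole bacteria with a GFP reporter of the hypoxia response; strong numbers were not always called active; many hits fall short of the cut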
RN4220 kill: growth inhibition of S. aureus RN4220, primary screen, OD600. 16 h. inhibition, % (no concentration beside the values). 0.33% of 330,000 active. AID 1259311, 2017;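 active means z-score of -3 or lower and OD600 up to 0.18 on both plates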;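 further: plate controls were untreated cells for no effect and reference antibiotic for full effect; stock transfer was 100 nL into about 80 µL; one replicate is shown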
BJeLR lethal: MLPCN primary cell-based screen for lethality selective to Ras in HRASV12 cells. BJeLR (HRASV12) viability, CellTiter-Glo ATP luminescence, 48 h; reference of the scale not given here. inhibition, % (test concentration not listed). 0.17% of 300,000 active. AID 1554, 2009;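 active means replicate mean above 50%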;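 further: 50 nL library stock added to about 25 µL; numbers are from one replicate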
ugtP null kill: growth inhibition of ugtP-null S. aureus, primary screen, RN4220 ugtP deletion, OD600 | AID 1259309, 2017 | growth inhibition, % (test concentration not listed) | 0.54% of 330,000 active | 16 h; some inactives read as strong as hits;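 active means z-score under -3 and OD600 up to 0.15 on both plates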;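 further: plate controls were untreated wells for no effect and antibiotic for full effect; wells of about 80 µL received 100 nL stock; the first replicate is given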
Mtb hypoxia inh growth: also measured in Mtb hypoxia inh; calls as there; growth inhibition, %; measured here: M. tuberculosis growth (absorbance);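 0% = vehicle and 100% = reference antibiotic; read after six days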
The depositor's hits bear a star; nt = not tested or not shown; & = joins results of further samples; ! = not active in a repeat. Hits appear at their usual frequency; about 4% have a hit in one of these screens.

SMILES	Autofluor counter	PrP 5UTR inh	Mtb hypoxia inh	Mtb hypoxia inh growth	RN4220 kill	BJeLR lethal	ugtP null kill
Cc1nccc2c1[nH]c1ccccc12	3969	-9.5	2.3	15.2	5.1	-0.7	-1.2
COc1ccccc1Nc1nc(N)nc(CSC(=S)N2CCOCC2)n1	3470	-39.4	3.5	11.1	6.5	2.8	8.6
O=C(OCCN1C(=O)c2ccccc2C1=O)C1CC(O)CN1S(=O)(=O)c1ccc(Cl)cc1 (stereo not drawn)	7947	-35.1	2.8	4.2	5.4	nt	6.0
OC(COCC1COc2ccccc2O1)CN1CCc2ccccc2C1 (stereo not drawn)	4483	-14.3	10.6	16.5	-0.1	-1.4	1.6
O=C(O)CCCCCN1C(=O)/C(=C\c2ccc(-c3ccc(Cl)cc3)o2)SC1=S	3516	-28.0	5.4	8.0	16.2	13.2	-1.1
COc1ccc(C2=NOC(C)(c3nnc(Cc4ccccc4)o3)C2)cc1 (stereo not drawn)	3111	4.5	21.4	10.0	5.7	-5.2	4.1
O=C(NCCc1ccccc1)c1nc2ncccn2n1	7988	-12.7	1.8	3.2	2.8	-10.1	7.6
CC1CCN(C(=S)NC(=O)c2ccc(F)cc2)CC1	3756	-27.2	-1.9	3.8	-0.6	nt	-1.5
COc1cccc(C(=O)OC2CCCN(C)C2)c1 (stereo not drawn)	4358	-24.0	nt	nt	-2.8	2.8	-1.6
O=C(OCCN1CCN(c2ncc(C(F)(F)F)cc2Cl)CC1)c1ccc(F)cc1	2933	-10.3	-8.9	1.9	1.3	11.1	8.2
Cc1noc(C)c1S(=O)(=O)N1CCC(Cc2ccccc2)CC1	3948	-16.1	nt	nt	2.6	-6.5	8.9
COc1ccc2c(C)c(C(=O)NCC(C)O)oc2c1OC (stereo not drawn)	2825	-3.6	nt	nt	2.8	13.1	-0.8
CCCN(C(=O)c1cc(S(=O)(=O)N(C)c2ccccc2OC)ccc1C)C1CCS(=O)(=O)C1 (stereo not drawn)	3086	-6.1	1.7	-1.3	2.7	nt	4.8
O=C(CC(NCCc1ccccc1)C(=O)O)Nc1ccc(O)cc1 (stereo not drawn)	nt	nt	-3.2	7.4	1.1	-1.5	-1.0
COc1ccc(/C=N\NC(=O)CCN2CCN(c3ccccc3)CC2)cc1OC	3091	-8.3	nt	nt	nt	1.4	nt
C=CCn1c(SCC(=O)NC2CCS(=O)(=O)C2)nnc1-c1ccncc1 (stereo not drawn)	5444	-113.8	-0.3	-4.4	3.1	5.5	0.7
COc1cccc(NC(=O)CN(c2cccc(OC)c2)S(C)(=O)=O)c1	3444	-12.2	5.2	7.5	3.0	-5.8	1.2
Cc1cc(OCC(=O)Nc2sc3c(c2C#N)CC(C)(C)NC3(C)C)c(C(C)C)cc1Cl	5179	-7.3	17.2	7.4	-6.7	16.6	-5.1
CCOP(=O)(C#Cc1ccccc1)C(O)c1ccc(Br)cc1 (stereo not drawn)	4549	-4.2	0.6	-2.2	13.5	15.0	6.9
COc1ccc(C(=O)NC(=S)NCc2ccco2)cc1	4658	-12.0	-3.7	4.0	5.9	-10.0	-5.1
O=C1CCC(C(=O)N2CSCC2C(=O)O)N1 (stereo not drawn)	nt	nt	-3.1	3.5	-0.4	nt	1.5
O=C(Nc1ccon1)c1cnc2sccn2c1=O	3956	-31.9	1.0	1.9	0.9	-25.0	0.8
Nn1c(SCC(=O)NC2CCS(=O)(=O)C2)nc2scc(-c3ccccc3)c2c1=O (stereo not drawn)	nt	-8.2	-0.2	2.5	11.0	nt	6.2
COc1ccc(/C=C/C(=O)O)cc1S(=O)(=O)N1CCC(Cc2ccccc2)CC1	3962	-25.8	3.7	1.5	4.4	-3.6	-6.2
CCN(c1ccc(OC)cc1)S(=O)(=O)c1nnc(NC(=O)COc2ccccc2)s1	5194	0.2	6.1	-11.5	8.7	3.8	1.3
COc1ccc(CCNC(=O)c2cnc3ccccc3n2)cc1	3698	-0.7	-5.2	-1.8	3.5	-10.5	3.3
O=C(Cn1ncc2c([nH]c3ccccc32)c1=O)N1CCN(c2ccc(F)cc2)CC1	5271	-18.5	10.8	4.8	3.5	6.9	0.4
CCn1nc(C)c([N+](=O)[O-])c1C(=O)NNC(=O)c1ccccc1Cl	3873	-10.0	6.6	7.3	2.2	-7.4	4.8
O=C(NCc1ccccc1Cl)NC(=O)c1csc([N+](=O)[O-])c1	5237	-15.8	4.9	12.4	4.7	3.2	4.6
CCCC(C(=O)NCC1CCCO1)N(Cc1ccco1)C(=O)CNS(=O)(=O)c1ccc(F)cc1 (stereo not drawn)	2698	-16.2	nt	nt	-0.2	-2.3	2.8
COc1ccc(C2C(=O)N(CCc3ccccc3)CC(=O)N2C2CCCC2)cc1 (stereo not drawn)	23925*	-35.6	-12.9	-5.1	2.2	1.2	8.0
COc1ccc(C(=O)c2ccccc2)c(OCC(=O)NC2CC2)c1	4241	-28.2	-4.7	-2.2	3.5	1.9	4.7
Nn1c(SCC(=O)NC2CCS(=O)(=O)C2)nnc1-c1ccco1 (stereo not drawn)	3773	-11.8	12.1	12.1	3.6	nt	6.3
CC(C)Oc1ccccc1C1Nc2ccccc2C(=O)N1c1ccc2c(c1)OCCO2 (stereo not drawn)	2359	-44.8	16.4	8.6	9.9	3.1	-25.5
COc1cccc(Cn2c(NCc3cccnc3)nc3c2c(=O)n(C)c(=O)n3C)c1	2119	-8.3	nt	nt	2.8	46.4	2.5
O=C(Cn1c(C(=O)N2CCN(C3CCCCC3)CC2)cc2sccc21)c1ccccc1	9920	-36.6	1.6	4.5	2.4	-8.7	-4.9
Cc1nc2ccc([N+](=O)[O-])cc2[nH]1	4803	-28.6	4.1	6.0	-1.3	-5.9	-0.9
Cc1nc(Cl)sc1C(=O)Nc1ccccc1	2593	-16.7	-0.4	-10.8	-2.6	-2.6	-0.4
CCOCCc1nn2c(=O)cc(CSCC(=O)Nc3cc(C)cc(C)c3)nc2s1	5856	-6.8	12.5	5.7	0.3	3.7	2.0
COc1ccc(CN2C(=O)CCC(C(=O)O)C2c2ccccc2)cc1 (stereo not drawn)	2035	-24.6	1.1	1.7	1.5	0.2	-5.5
Cc1noc(C)c1C(=O)Nc1nnc(-c2ccccc2)s1	2466	-19.8	10.6	10.5	5.4	3.0	-6.1
O=C(c1ccc(S(=O)(=O)N2CCOCC2)cc1)N1CCN(c2ccccc2F)CC1	11316	-11.5	13.7	12.1	5.0	-13.1	1.5
CCN(CC)S(=O)(=O)c1ccc(C(=O)NCCN(C)C)cc1	4774	-23.8	1.7	4.0	2.7	-4.1	-5.3
O=C(Nc1ccnn1C1CCN(C(=O)c2cnsn2)CC1)c1cccc(F)c1	4046	-23.4	4.3	-1.0	3.2	-2.1	14.8
Cn1c(Cc2csc(N)n2)nnc1SCC(=O)NC1CCCCC1	4100	-6.7	nt	nt	2.7	nt	5.3
CC(C)c1ccc(NC(=O)CSc2nc3ccccc3nc2N2CCCC2)cc1	5090	-26.0	4.4	10.8	2.6	-3.3	-14.8
COc1ccccc1CCC(=O)NNC(=O)c1ccc(Br)cc1	3664	-11.4	6.0	15.6	0.9	1.9	2.3
CCOC(=O)c1ccc(NC(=O)COc2ccc(CNCCO)cc2OCC)cc1	4599	-1.7	17.8	9.0	3.5	-4.3	-2.2
CCCONC(=O)Nc1ccccc1[N+](=O)[O-]	2258	-10.6	4.5	11.8	4.7	9.1	-3.3
Cc1cc2c(N=NC(=O)C3CC3c3ccccc3)c(O)[nH]c2cc1Br (stereo not drawn)	2011	-6.6	15.7	2.2	8.1	-1.6	-31.4
O=C(CS(=O)(=O)c1cn(Cc2ccc(F)cc2)c2ccccc12)N1CCCCC1	9706	-17.0	5.2	1.5	2.9	-2.8	-7.4
CCc1ccccc1NC(=O)CN1CCN(C(=O)CCC(=O)N2CCC(c3ccccc3)=N2)CC1	nt	-2.2	9.8	-0.3	2.8	nt	4.0
CCOc1ccc(NS(=O)(=O)c2ccc(C(=O)N(C)Cc3cccc(OC)c3OC)cc2)cc1	6326	-53.5	12.3	0.5	-1.2	-4.6	10.8
COc1cc(/C=N/NC(=O)c2ccc3ccccc3c2)ccc1Oc1ccc([N+](=O)[O-])cn1	1950	-14.4	nt	nt	nt	-0.4	nt
COc1ccc(CC(=O)Oc2ccc(C)cc2Br)cc1S(=O)(=O)N1CCOCC1	5866	3.4	1.6	6.4	4.6	-3.4	3.7
O=C(CCCN1C(=O)C(c2ccccc2)Oc2cccnc21)NCc1ccc(F)cc1 (stereo not drawn)	5335	-9.5	6.8	1.5	-4.3	5.2	7.9
CC1SCCN1S(=O)(=O)c1ccc2ccccc2c1 (stereo not drawn)	4501	-0.8	nt	nt	6.1	0.8	-4.1
Cc1cc(C)c(NC(=O)c2cc(C(=O)O)ccc2C(=O)O)c([N+](=O)[O-])c1	4035	-8.9	nt	nt	nt	6.3	nt
CN(CCOc1ccc(Cl)cc1)C(=O)CNS(=O)(=O)c1ccc(N(C)C)c([N+](=O)[O-])c1	6023	-10.9	-2.9	-3.4	-0.2	nt	-4.3
Brc1ccc2c(c1)C(c1cccnc1)=NNC(c1cccs1)=N2	2476	-10.7	-1.3	5.2	0.6	-16.7	-7.2

Other structures:
SMILES	Autofluor counter	PrP 5UTR inh	Mtb hypoxia inh	Mtb hypoxia inh growth	RN4220 kill	BJeLR lethal	ugtP null kill
CCOP(=O)(OCC)C(NC(=O)c1ccccc1C)C(Cl)(Cl)Cl (stereo not drawn)	2375	-0.7	nt	nt	4.7	4.4	13.1
COC(=O)c1cccc(C(=O)N2CCCC(CCC(=O)N(C)CCc3ccccn3)C2)c1 (stereo not drawn)	5084	-23.6	3.9	4.9	1.0	-4.6	2.1
C=CCNC(=O)C(=O)NN=Cc1ccco1	nt	nt	6.9	10.3	3.6	nt	1.7
O=C(CCc1ccccc1)NNC(=O)c1ccc(F)cc1	3588	-23.6	7.6	-5.9	7.6	-3.0	-0.1
COc1cccc(N(CC(=O)NCCSc2ccccc2)S(C)(=O)=O)c1	9773	nt	6.2	5.5	5.0	-7.9	2.8
O=C1C2Sc3[nH]c(=O)sc3C(c3cc([N+](=O)[O-])ccc3O)C2C(=O)N1c1ccccc1 (stereo not drawn)	4231	-10.3	3.9	1.2	5.2	0.7	4.9
CCCCOc1ccc(C(=O)NCC(=O)OC2CCOC2=O)cc1 (stereo not drawn)	4085	-10.7	nt	nt	1.5	-4.6	5.9
CCOC(=O)c1c(CN2CCOCC2)n(C)c2cc(Br)c(O)c(CN(C)C)c12	21896*!	-13.1&-18.3	-5.1&-4.4	6.4&10.8	2.0&5.5	2.1&1.1	0.3&-0.7
O=S(=O)(Nc1ccccc1)c1ccc(NS(=O)(=O)c2cccs2)cc1	3248	-9.7	2.1	-2.3	-3.9	1.7	13.4
Fc1ccccc1C1c2[nH]c3ccccc3c2CCN1Cc1ccoc1 (stereo not drawn)	2086	-1.5	8.9	2.7	-4.6	-13.9	35.3
Cn1c2c(c(=O)n(C)c1=O)C1c3ccccc3OCC1C(C)(C)O2 (stereo not drawn)	4484	-34.3	nt	nt	1.8	6.6	3.6
NC(=NOC(=O)C1CC1)c1ccc([N+](=O)[O-])s1	nt	nt	-2.3	7.8	5.6	nt	5.2
O=C(CCN1CCOCC1)c1ccc(Cl)cc1	3570	-11.6	-1.7	-2.2	31.5	0.6	10.2
COC(=O)C1=C(c2ccc(C(C)=O)cc2)CC2CCC1N2C(=O)NCCOc1ccccc1Cl (stereo not drawn)	nt	nt	-1.9	9.9	-0.5	nt	-8.0
